Source: PubChem BioAssay
MT1-MMP act inh – blocks activation of human MT1-MMP; AID 651647; GFP/RFP ratio change, % at 20 µM; P50281; HT1080 RFP-PRO-GFP cells, GFP/RFP ratio fluorescence, overnight; percent of plate control window, DMSO zero; 360,000 tested, 0.061% active;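 active = GFP/RFP ratio change of at least 30% with cell ATP level not reduced by more than half and red fluorescence within 50% of control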; also: strong numbers were not always called active
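Assay system: HT1080 RFP-PRO-GFP cells | Dosing: 20 µM single dose, 1% DMSO | Incubation: Cells overnight before dosing, compound overnight, 37 °C, 5% CO2 | Evaluation: GFP/RFP fluorescence ratio | Control set: DMSO-only wells and HT1080 RFP-L50D-GFP cell wells as references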
UUG fidelity – alters start codon recognition fidelity in yeast | S. cerevisiae UUG-firefly luciferase reporter, luminescence/redox ratio | activity score, % at 18.7 µM | 350,000 tested, 0.13% active;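 active = replicate mean at a twofold rise or more, about +100% in these data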;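 also: firefly luciferase made from a UUG start codon reports start codon fidelity; reporter light over untreated wells divided by growth signal over untreated wells; some hits fall short of that in this replicate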
PABP polyA inh – PABP-poly(A) binding inhibition; inhibition, % at 35 µM; 290,000 tested, 1% active; AID 2014; P11940; PABP-poly(A) RNA binding, fluorescence polarization;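 active = 50% or more with normal probe brightness, or confirmed in later tests; about a fifth of its hits are not listed in these tables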;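 also: calls also rest on retests at 20 µM and on dose response follow-up; controls were probe without protein and protein plus probe with vehicle; some compounds called inactive have numbers as strong as hits; many hits fall short of the cut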
Target sequence (P11940 whole entry, looked up): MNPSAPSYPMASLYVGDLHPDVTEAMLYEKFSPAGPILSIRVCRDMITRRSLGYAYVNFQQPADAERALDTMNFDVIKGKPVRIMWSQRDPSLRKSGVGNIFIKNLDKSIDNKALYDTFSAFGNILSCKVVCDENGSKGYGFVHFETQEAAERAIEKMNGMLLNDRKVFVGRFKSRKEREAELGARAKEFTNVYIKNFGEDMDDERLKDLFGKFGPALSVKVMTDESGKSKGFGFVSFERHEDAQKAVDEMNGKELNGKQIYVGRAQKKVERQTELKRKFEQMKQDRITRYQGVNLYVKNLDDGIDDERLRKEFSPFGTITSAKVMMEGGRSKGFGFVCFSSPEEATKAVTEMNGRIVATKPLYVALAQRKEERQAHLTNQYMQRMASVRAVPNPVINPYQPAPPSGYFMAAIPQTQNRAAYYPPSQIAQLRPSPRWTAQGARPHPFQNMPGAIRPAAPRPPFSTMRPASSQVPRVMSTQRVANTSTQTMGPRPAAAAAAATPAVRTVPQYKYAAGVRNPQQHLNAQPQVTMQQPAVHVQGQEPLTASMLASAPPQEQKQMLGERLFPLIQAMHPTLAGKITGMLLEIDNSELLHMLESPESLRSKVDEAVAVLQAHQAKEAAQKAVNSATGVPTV
HIV Env fusion – inhibitors of HIV Env-mediated cell fusion. 360,000 tested, 1.1% active. inhibition, % at 12.3 µM. HeLa-JRFL Env/CEM21 cell fusion, luciferase;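 active = mean replicate inhibition score of at least 50 and every replicate individually at or above 50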;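 also: 0% = plate neutral controls and 100% = maraviroc near 300 nM; one replicate is shown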
Rce1 inh – blocks yeast Ras-converting enzyme; yeast membranes, quenched prenylated peptide cleavage fluorescence; calls only; 290,000 tested, 0.27% active;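 active = fall in fluorescence gain of 50% or more versus controls, with final raw signal at or below 3038400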;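 also: plate controls were neutral control wells for no effect and wells lacking membranes for full effect; tested at 10 µM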
Target sequence (Q03530 whole entry, looked up): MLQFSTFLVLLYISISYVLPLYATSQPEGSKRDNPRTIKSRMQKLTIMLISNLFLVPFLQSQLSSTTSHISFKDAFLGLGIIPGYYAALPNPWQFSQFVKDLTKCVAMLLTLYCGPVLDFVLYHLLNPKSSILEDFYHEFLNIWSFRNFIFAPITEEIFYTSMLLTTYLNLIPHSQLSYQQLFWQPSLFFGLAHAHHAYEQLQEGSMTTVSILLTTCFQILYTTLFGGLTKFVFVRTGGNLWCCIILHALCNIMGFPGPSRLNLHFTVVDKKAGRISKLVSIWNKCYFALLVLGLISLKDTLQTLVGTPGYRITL
eIF4H inh – inhibitors of RNA binding by human eIF4H | Q15056 | eIF4H fluorescence polarization binding assay | inhibition, % at 35 µM | 290,000 tested, 0.94% active;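 active = 50% or more with normal probe brightness, or confirmed in later tests; about a fifth of its hits are not listed in these tables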;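 also: calls also rest on retests at 20 µM and on dose response follow-up; 0% = protein and probe with vehicle and 100% = probe without protein; strong numbers were not always called active; many hits fall short of the cut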
CSC inhib – blocks cancer stem cells; AID 2717; inhibition, % at 7.5 µM; 300,000 tested, 1.1% active; cancer stem cell-like cells viability, luminescence;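 active = mean at 75% or more and at least half the replicates too; tested in HMLE shEcad cells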;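 also: 0% = median of negative and 100% = median of positive control wells; the first replicate is given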
MT1-MMP act inh RFP – also measured in MT1-MMP act inh; calls as there; RFP signal change, %; measured here: RFP expression control read;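 0 = vehicle wells; hits needed this value within 50% of zero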
Numbers without * were called inactive; i = inactive; . = no result given; & = joins results of further samples. Not all compounds are listed; rates above refer to the full screens.

nr	Molecule	CSC inhib	UUG fidelity	MT1-MMP act inh	eIF4H inh	Rce1 inh	HIV Env fusion	PABP polyA inh	MT1-MMP act inh RFP
1	Cc1ccc(NC(=O)CCC(=O)N/N=C/c2ccc([N+](=O)[O-])o2)cc1C	-8	5	-6	18	i	7	6	-15
2	C#CCSc1nnc(-c2sc(-c3ccccc3)nc2C)n1C	.	10	-1	3	i	-23	1	-2
3	COCCNc1ccc([N+](=O)[O-])cc1C(=O)Nc1cccc(C)n1	7	.	-2	2	i	-25	3	-3
4	COc1ccc(-c2nnc(NC(=O)c3ccc(S(=O)(=O)N(C)CC4CCCO4)cc3)o2)c(OC)c1 (stereo not given)	-7	-28	2	16	i	-8	1	4
5	CCCC1C(c2ccco2)NC(c2ccco2)CC1(C)O (stereo not given)	2	.	-10	18	i	.	37	0
6	CSC1=NCCN1C(=O)c1ccc2c(c1)OCO2	6	-18	7	11	i	1	-3	5
7	CCn1c(O)c(C=C2N=c3ccccc3=N2)sc1=S	-15	.	-6	-12	i	9	-2	4
8	O=C(c1cc(C2CC2)nn1-c1ccccc1)N1CCN(Cc2ccccc2F)CC1	.	-5	1	.	.	-11	.	-1
9	CC1CCN(C2=NC(=O)/C(=C/c3cccc(O)c3)S2)CC1	0	1	-10	-9	i	-3	-2	-6
10	COc1cc(/C(C)=N/NC(=O)c2cccc(S(=O)(=O)N3CCCC3)c2)cc(OC)c1OC	11	-15	2	1	i	-252	-2	4
11	Cc1onc(-c2ccccc2Cl)c1C(=O)Nc1nc2ccc(S(C)(=O)=O)cc2s1	32	8	-14	6	i	-4	-3	-5
12	O=C(N/N=C/c1ccc(F)cc1)c1ccc(OCc2ccccc2)cc1	1	-2	-6	-8	i	-4	-2	1
13	Cc1ccccc1-n1c(SCC(=O)NCC2CCCO2)nc2c([nH]c3ccccc32)c1=O (stereo not given)	-2	10	-2	2	i	-57	7	-1
14	Cc1cc(C)cc(NC(=O)CN2C(=O)c3ccccc3C2=O)c1	-8	-6	-5	-3	i	-118	3	-2
15	CCCCC(CC)COC1(c2ccccc2)OC(=O)c2ccccc21 (stereo not given)	24	-5	-1	2	i	-12	14	-7
16	O=C(Nc1ccc(C(=O)N2CCCc3ccccc32)cc1)c1cccs1	-6	-20	2	-4	.	-17	0	-3
17	O=C1CCCC2=C1C(c1ccc(Br)cc1)c1c([nH]c(=S)[nH]c1=O)N2 (stereo not given)	-11	-35	-18	17	i	32	26	-11
18	Cc1ccc2nc3ccc(N4CCN(C)CC4)nn3c(=O)c2c1	.	-26	2	2	i	.	2	2
19	CC(=O)Nc1ccc(S(=O)(=O)NCCc2ccccn2)cc1	-10	.	2	-2	i	-15	-4	-1
20	CN(C)c1ccc(P(=O)(OC2CCCCC2)C(O)c2ccccn2)cc1 (stereo not given)	-9	.	-2	-15	i	-1	-2	2
21	Cc1cc(C(=O)Nc2ccc(F)cc2C)cs1	2	-1	-1	-7	i	-66	6	4
22	S=c1nc2ccccc2c2nc(-c3ccccc3)[nH]n12	-6	-17	16	3	i	-80	-3	2
23	C=C(C)C1CC=C(C)/C(=N/NC(=S)Nc2ccccc2)C1 (stereo not given)	-9	.	2	5	i	.	8	-1
24	CCOc1ccccc1CNC(c1ccccc1)c1ccccc1	-2	-11	-4	-3	i	43	-4	-6
25	C=CCOc1ccc(/C=N/n2cncn2)cc1OC	-14	-22	1	1	i	-212	2	1

Further compounds.
nr	Molecule	CSC inhib	UUG fidelity	MT1-MMP act inh	eIF4H inh	Rce1 inh	HIV Env fusion	PABP polyA inh	MT1-MMP act inh RFP
26	COc1ccc([N+](=O)[O-])c(OC)c1C(=O)NC(=O)Nc1nc(C)nc(C)n1	-5	-6	0	-10	i	-2	4	4
27	O=C(c1ccc2ccccc2n1)N1CCN(c2ccccc2)CC1	-9	-18	1	1	i	.	6	-2
28	O=C(O)C1Cc2[nH]cnc2C(c2ccccc2O)N1 (stereo not given)	-11	.	-10	31	i	.	7	11
29	COc1ccc2[nH]c(=O)c(CNc3cc(C)ccc3C)cc2c1	-4	.	-6	11	i	-3	25	0
30	CC1(c2ccc(OC(F)F)cc2)NC(=O)N(CC(=O)Nc2ccc3c(c2)OCO3)C1=O (stereo not given)	-4	0	-2	-8	i	-24	-11	0
31	Cn1c(=O)[nH]c2ncccc21	-5	-14	1	30	i	9	9	7
32	O=C(NCC1(N2CCCCC2)CCCCC1)C1CC(=O)N(c2ccc3c(c2)OCCO3)C1 (stereo not given)	-6	10	1	3	i	-1	-13	3
33	Cc1cc(OCC(=O)NC(C)C)cc(C)c1Br	2	.	-4	0	i	.	-5	-2
34	Cc1cc(NC(=O)COn2nnc3ccccc32)no1	-10	-11	4	6	i	.	-4	3
35	COc1ccc(C(=O)Nc2nncs2)c(OC)c1	.	-20	0	-12	i	-15	-24	3
36	Cn1c(CNC(=O)c2ccccc2F)nnc1SCc1nc2ccccc2c(=O)[nH]1	9	.	.	-4	i	10	-6	.
37	Cc1cc(C)c2cc(C(=O)N3CCN(c4ncccc4C(F)(F)F)CC3)[nH]c2c1	.	-17	1	-3	i	22	-15	-1
38	CC(c1ccccc1)N1CC(C(=O)Nc2ccc(F)cc2)CC1=O (stereo not given)	-3	-17	0	.	.	.	.	2
39	CCc1ccccc1N(C(=O)Cn1nnc2ccccc21)C(C(=O)NCCOC)c1ccco1 (stereo not given)	11	-12	-7	0	i	-62	0	-2
40	CCCCCc1nc2sc3c(c2c(=O)n1N)CCC3	-16	.	-2	-7	i	.	-7	-8
41	OCCCc1nc2ccccc2n1Cc1ccccc1	2	0	-3	-11	i	-13	1	-3
42	CC1CCN(C(=O)CSc2nnc(-c3cccnc3)o2)CC1	.	-21	0	3	i	4	-3	4
43	CC1(C(=O)NS(=O)(=O)c2ccc(C#N)cc2)CCN1C(=O)c1ccccc1CCc1ccccc1 (stereo not given)	.	-13	-7	.	.	9	.	4
44	CC(C)NC(=O)c1cc(-c2cccs2)nc2ccccc12	-7	0	-3	-5	i	11	14	-4
45	Cn1nnnc1SCC(=O)NNC(=O)c1ccc(F)cc1	-3	-10	2	-8	i	10	-7	6
46	Cc1ccc(Cl)cc1NC(=O)COC(=O)C12CC3CC(CC(C3)C1)C2	2&-2	1&-16	3&3	-7&-7	i	-55	-22&-5	4&3
47	Cc1cc(C(=O)CN2C(=O)CCC2=O)c(C)n1Cc1ccccc1	-15	13	0	2	i	16	0	-1
48	CN(Cc1ccccc1)C(=O)c1[nH]cnc1C(=O)Nc1nccs1	-28	-6	2	.	.	28	.	1
49	CC(=O)Nc1ccc(S(=O)(=O)NCCC(=O)NCc2ccco2)cc1	.	-10	-1	.	.	-18	.	2
50	O=C1COc2c1ccc(O)c2O	.	-4	4	.	.	13	.	0

Other results follow:
nr	Molecule	CSC inhib	UUG fidelity	MT1-MMP act inh	eIF4H inh	Rce1 inh	HIV Env fusion	PABP polyA inh	MT1-MMP act inh RFP
51	COc1ccccc1-n1ccnc(SCC(=O)NCCc2ccccc2)c1=O	6	-10	-9	.	i	16	.	-2
52	CC(=O)Oc1ccccc1Cn1c(C)c(C(=O)NCc2ccccc2C(F)(F)F)sc1=O	.	-3	6	.	.	-27	.	1
53	CCc1cc(C(=O)N2CCCC(CNC(=O)c3ccc(-c4ccccc4)cc3)C2)no1 (stereo not given)	-4	.	2	6	i	-14	-4	-2
54	CC(=O)c1cccc(OCc2cc(C(=O)NCc3nc(C)c(C)s3)no2)c1	-5	-3	-3	-4	i	-34	-7	2
55	CCCc1[nH]n(-c2nc3ccccc3s2)c(=O)c1C=NCC1CCCO1 (stereo not given)	-9	-26	0	-4	i	-29	0	1
56	Cc1ccc(NC(=O)/C=C\C(=O)NCC(=O)O)cc1	-18	.	2	4	i	4	-4	7
57	CCOCc1c(C(=O)OCC(=O)Nc2ccc(C)c(S(=O)(=O)N(C)C)c2)oc2ccccc12	3	.	3	-11	i	-9	8	6
58	Cc1ccc(NC2CC(=O)N(c3ccc(C)cc3)C2=O)cc1 (stereo not given)	7	10	2	-4	i	.	10	2
59	CCOCCCNS(=O)(=O)c1ccc2c(c1)OCCO2	-6	-7	1	-10	i	.	-14	4
60	Cc1cccn2c(=O)nc(SCC(=O)N3CCCCC3)nc12	-1	.	-1	.	i	5	.	2
61	O=C1CN(S(=O)(=O)c2ccc(F)cc2)CC(=O)N1CCc1ccccc1	.	.	.	-3	i	.	6	.
62	CCN1C(=O)/C(=C\c2ccncc2)SC1=S	22	7	0	-1	i	13	4	0
63	CC(C)(C)C(=O)Nc1c2c(nc3c1CCC3)CCCC2	2	-26	6	14	i	.	14	4
64	O=C(Cn1cnc(S(=O)(=O)N2CCCC2)c1)Nc1ccccc1	-18	-11	2	-5	i	12	-7	3
65	O=C1c2ccccc2C(=O)N1CCCCSc1nnc2c(Cl)cc(Cl)cn12	-14	-4	4	4	i	.	7	-2
66	COc1ccccc1C(=O)Nc1ccc(Oc2ncnc3sc(-c4ccccc4)cc23)cc1	4	-18	-2	2	i	-235	0	-6
67	O=C(CC1(O)C(=O)N(Cc2ccc3c(c2)OCO3)c2ccccc21)c1ccccc1 (stereo not given)	.	-12	4	-11	i	.	-2	2
68	Cc1cccc(-c2n[nH]c(=S)n2/N=C/C=C/c2ccco2)c1	-7	-24	-3	85*	i	8	57*	-2
69	Cc1ccc(NC(=O)Cn2ncc3ccccc32)c(Cl)c1	11	-4	7	1	i	-9	5	3
70	CCn1c2ccccc2c2cc([N+](=O)[O-])ccc21	-1	.	-6	-4	i	34	5	-3
71	CCOc1ccc(-c2nonc2NC(=O)c2ccco2)cc1	-2	-7	-1	0	i	-9	-5	-7
72	O=C(CN1C(=O)NC2(CCCCC2)C1=O)N1CCN(S(=O)(=O)c2ccc(F)cc2)CC1	0	4	-2	.	i	-23	.	3
73	O=C(O)C1CCCN1C(=O)Oc1ccccc1 (stereo not given)	.	0	4	-10	i	-2	9	2
74	Nc1ccc2nc(-c3cccs3)[nH]c2c1	26	-21	11	-1	i	.	8	3
75	CCCc1c(C(=O)N/N=C/C(C)=C/c2ccco2)nnn1-c1nonc1N	2	-17	2	0	i	9	4	3

Two compounds picked at random from those above:
nr	Molecule	CSC inhib	UUG fidelity	MT1-MMP act inh	eIF4H inh	Rce1 inh	HIV Env fusion	PABP polyA inh	MT1-MMP act inh RFP
16	O=C(Nc1ccc(C(=O)N2CCCc3ccccc32)cc1)c1cccs1	-6	-20	2	-4	.	-17	0	-3
52	CC(=O)Oc1ccccc1Cn1c(C)c(C(=O)NCc2ccccc2C(F)(F)F)sc1=O	.	-3	6	.	.	-27	.	1

Later entries.
nr	Molecule	CSC inhib	UUG fidelity	MT1-MMP act inh	eIF4H inh	Rce1 inh	HIV Env fusion	PABP polyA inh	MT1-MMP act inh RFP
76	CCC(=O)c1cn(CC(=O)O)c2ccccc12	7	-11	3	1	i	6	-2	5
77	COc1cc2nc(N3CCNCC3)nc(N)c2cc1OC	2	-7	-3	6	i	-2	20	-7
78	Cc1ccc(C(=O)Nc2oc(-c3ccccc3)cc2C#N)cc1	-5	11	-5	0	i	.	-4	0
79	O=c1onc(-c2ccccc2)n1-c1cc(Cl)cc(Cl)c1	7	0	3	.	.	-7	.	2
80	CCOC(=O)c1c(-c2cccs2)csc1NC(=O)CC(C)C	-1	-9	-6	2	i	-103	0	1
81	Cc1cc(NC(=O)CSC2=NS(=O)(=O)c3cc(Cl)ccc3N2)no1	-6	-9	-2	.	i	-30	.	1
82	Cc1cccn2cc(CCNC(=O)c3cccs3)nc12	.	-2	5	-6	i	-9	8	1
83	O=C(NC(=S)N1CCN(C/C=C/c2ccccc2)CC1)c1cccnc1	-1	-34	8	-2	i	8	0	4
84	O=c1n(S(=O)(=O)c2cccc3cccnc23)c2ccccc2n1S(=O)(=O)c1cccc2cccnc12	3	-1	-3	2	i	.	1	-8
85	COc1ccc(C2NCCc3cc(OC)c(OC)cc32)cc1OC (stereo not given)	-16	0	-21	-6	i	21	-1	-7
86	O=C(CN(C(=O)c1ccccc1)N1C(=O)CCC1=O)c1cccs1	-18	-4	-1	-5	i	2	2	6
87	COc1ccccc1Cc1noc(-c2cc(Cl)ccc2OC)n1	18	-14	-2	-7	i	.	-14	1
